Screens deposited in PubChem BioAssay by National Center for Advancing Translational Sciences (NCATS).
Rango release inh = qHTS Assay for Inhibitors of RanGTP induced Rango (Ran-regulated importin-beta cargo) - Importin beta complex dissociation | Snurportin-1 (Homo sapiens) + GTP-binding nuclear protein Ran (Homo sapiens) + Importin … | Biochemical FRET Rango-importin beta, RanGTP-induced dissociation | Potency, µM (highest dose often 46.1 µM), for the others: top-dose activity change, negative = inhibition | actives 0.071% (n = 340,000) | AID 540253, 2011; active means falling FRET ratio curve, often poorly fitted, with flat reads before Ran was added; inconclusive means other falling curves, or compound fluorescence or quenching; inactive means flat or rising ratio curve;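 note: potency is the fitted concentration of half-maximal effect; % of control where 0% means no effect; nearly all actives have a fitted effect of over 45% in size; -100% = wells without RanGTP and RCC1; the record marks most hits as doubtful in a second field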
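Rango/importin beta premix (0.1/0.25 uM final), PBS + 1 mM DTT + 0.02% Tween-20 + 0.1% BSA; cpd 5 min RT; FRET pre-read; + RanGTP-RCC1 (0.6 uM Ran, 2 mM GTP, 0.2 uM RCC1); 45 min RT; FRET post-read, ex 430, em 486/530 nm.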
miR-21 FLuc = qHTS Assay for Modulators of miRNAs and/orActivators of miR-21; HeLa miR-21 FLuc reporter, luciferase, 48 h; Potency, µM (top dose mostly 38.3 µM), inactives show at the highest dose reporter change, positive = more light; 340,000 tested, under 10 active; active = well fitted rising curve with a large enough effect; inconclusive = small, poorly fitted or top-dose-only effect; inactive = no such curve, though single readings can be large or run the other way;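 note: % of control where 0% means no effect; miR-21 action dims this reporter so a rising signal means less miR-21 action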
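HeLa miR-21-FLuc reporter line, endogenous miR-21; 2000 cells/well in DMEM/10% FBS; compound titration up to ~40uM final, 48 h, 37 degree Celsius; luciferase detection reagent, 15 min lysis, CCD luminescence.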
Rango complex inh = qHTS Assay for Inhibitors of Rango (Ran-regulated importin-beta cargo) - Importin beta complex formation. Potency, µM (top dose mostly 92.2 µM), for the others: at the highest dose inhibition of complex formation. Rango CFP/YFP FRET sensor + importin beta, 45 min. AID 540263, 2011. actives 0.031% (n = 340,000). Importin subunit beta-1 (Homo sapiens), Q14974; active = rising FRET ratio curve, often small or poorly fitted; inconclusive = mostly compound fluorescence or quenching in the first reads; inactive = flat curves in all reads;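 note: potency is the fitted concentration of half-maximal effect; 0% = DMSO wells and 100% = buffer wells lacking importin beta; nearly all actives have a fitted effect of over 15% in size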
Target sequence (Q14974 whole entry, looked up): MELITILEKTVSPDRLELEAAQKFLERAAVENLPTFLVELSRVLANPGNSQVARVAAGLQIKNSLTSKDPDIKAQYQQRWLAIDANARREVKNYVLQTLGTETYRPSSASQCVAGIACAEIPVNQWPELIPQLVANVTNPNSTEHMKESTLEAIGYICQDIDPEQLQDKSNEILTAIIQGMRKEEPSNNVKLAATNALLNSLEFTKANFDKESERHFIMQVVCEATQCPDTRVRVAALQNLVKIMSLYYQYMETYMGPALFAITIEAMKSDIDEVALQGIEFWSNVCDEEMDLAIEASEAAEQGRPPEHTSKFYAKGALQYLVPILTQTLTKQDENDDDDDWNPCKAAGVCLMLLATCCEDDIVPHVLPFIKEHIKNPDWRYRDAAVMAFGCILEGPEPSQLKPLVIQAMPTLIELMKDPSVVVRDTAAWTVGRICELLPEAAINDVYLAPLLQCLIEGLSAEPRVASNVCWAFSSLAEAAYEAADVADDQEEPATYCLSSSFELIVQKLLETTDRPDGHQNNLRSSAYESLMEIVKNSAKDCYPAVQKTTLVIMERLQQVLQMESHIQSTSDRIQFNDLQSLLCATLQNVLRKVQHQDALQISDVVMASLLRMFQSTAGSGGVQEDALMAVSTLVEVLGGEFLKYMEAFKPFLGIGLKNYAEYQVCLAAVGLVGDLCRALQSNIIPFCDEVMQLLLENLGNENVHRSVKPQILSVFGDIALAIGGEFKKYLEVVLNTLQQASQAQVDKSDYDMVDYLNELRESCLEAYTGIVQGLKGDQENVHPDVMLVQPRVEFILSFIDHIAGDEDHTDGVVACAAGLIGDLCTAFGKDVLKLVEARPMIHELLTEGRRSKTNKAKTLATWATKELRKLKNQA
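FRET biosensor (snurportin 1 IBB flanked by EYFP and cerulean), 50 nM, with compound 5 min, then 0.125 microM importin beta in PBS, 1 mM DTT, 0.02% Tween-20, 0.1% BSA. CFP/YFP ratio read after 45 min at room temperature; pre-read flags interference.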
GLA inh pH 4.5 = qHTS Assay for Inhibitors of Human alpha-Galactosidase at pH 4.5. 230,000 tested, under 10 active. purified enzyme, 4-MU-alpha-Gal fluorescence, pH 4.5. Alpha-galactosidase A (Homo sapiens), P06280. activity change, negative = inhibition, % at 105 µM; inconclusive = small, poorly fitted or top-dose-only inhibition, or a rising curve; inactive = flat fitted curve, though single readings scatter; no compound was filed as active;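 note: 0% = full activity with enzyme and -100% = basal without enzyme; dose as in the result columns while the protocol names 77 µM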
Numbers without * were called inactive; ? = inconclusive; nt = not tested or not shown; & = joins results of further samples. Not all compounds are listed. The share of hits here may be higher or lower than overall.

SMILES	Rango release inh	miR-21 FLuc	Rango complex inh	GLA inh pH 4.5
N#CC(C(=O)c1ccc(S(=O)(=O)N2CCCCCC2)cc1)c1nc2ccccc2[nH]1 (centres undefined)	-17%	-7%	?	-4
CCn1c(SCC(=O)NCCc2ccccc2)nc2sc3c(c2c1=O)CCN(C)C3	-18%	2%	?	-3
CS(=O)(=O)N(CCc1ccccc1)CC(=O)NCc1ccccn1	-3%	-5%	-1.5%	5
CC(=O)c1ccc(N2C(=NC(=O)CCC3CCCC3)SC3CS(=O)(=O)CC32)cc1 (centres undefined)	17%	0%	1.0%	nt
Cc1cccc(C)c1N1CCN(c2cc(Cl)nc(N)n2)CC1	-2%	-4%	0.1%	nt
CCOc1ccccc1-n1c(SCC(=O)NC2CCCC2)nnc1-c1ccoc1C	0%	1%	3.7%	-11
Cc1cc(N)c(C)c([N+](=O)[O-])c1C	12%	-2%	-1.4%	1
COc1ccc(-c2csc(NC(=O)c3cc(C)oc3C)n2)cc1OC	1%	6%	?	nt
COc1ccc(S(=O)(=O)N2CCN(C(=O)c3cc4c(s3)CCC4)CC2)cc1	-9%	nt	-4.3%	nt
O=C(OCn1nnc2ccccc2c1=O)c1ccc2ncsc2c1	20%	-17%	-1.5%	-3
Cc1ccc(-c2cc(C(=O)O)n[nH]2)s1	13%	-2%	1.1%	-2
O=C(NCCc1ccccc1Cl)C1CCC(=O)N(Cc2cccc(C(F)(F)F)c2)C1 (centres undefined)	17%	0%	-0.2%	nt
CN1C(C(=O)Nc2ccc(F)cc2F)=CC(c2cccs2)=NS1(=O)=O	32%	-5%&15%	-2.9%	nt
CC1Sc2ccc(S(=O)(=O)N(C)Cc3ccccc3)cc2NC1=O (centres undefined)	-1%	14%	-3.6%	nt
CCCn1c(SCC(=O)NC2CC2)nnc1-c1ccccn1	1%	3%	0.8%	nt
CCOc1ccc(N2C(=O)/C(=C/c3ccccc3OCC(=O)OC)N(CC(=O)OC)C2=S)cc1	30%	-3%	-0.7%	-16
Cc1cc(C)n(-c2nc3ccccc3c(=O)n2OCC(C)C)n1	5%	-3%	-0.5%	nt
CCCc1nnc(NC(=O)CCC(=O)N2CCN(Cc3ccc(Cl)cc3)CC2)s1	-7%	0%	-2.8%	nt
CCN(CC)CCNC(=O)C1c2ccccc2C(=O)N(C)C1c1cn(C)c2ccccc12 (centres undefined)	-18%	-7%	-1.0%	1
CCOC(=O)N1CCN(C(=O)c2ccc(CNS(=O)(=O)c3ccc(C)cc3)cc2)CC1	14%	-5%	2.8%	-5
O=C(NCC1CCS(=O)(=O)C1)Oc1ccccc1 (centres undefined)	-7%	0%	-3.4%	5
O=C(/C=C/c1ccnc2ccccc12)c1cccs1	1%	-53%	5.7%	2
COc1cc(C(=O)Oc2ccccc2/C=N/NC(=O)c2ccc(Cl)cc2Cl)cc(OC)c1OC	4%	9%	2.6%	-8
Cc1ccccc1/C=C1\C(=O)Nc2ccc(F)cc21	-1%	-1%	-3.4%	nt
O=C(Nc1ccc(F)c(F)c1)C1CCCN(S(=O)(=O)c2cnc[nH]2)C1 (centres undefined)	-11%	4%	-1.7%	nt
CCCC(c1nnnn1CS(=O)(=O)c1ccc(C)cc1)N1CCN(c2ccc(F)cc2)CC1 (centres undefined)	6%	-5%	3.9%	-4
C=CCOc1ccc(/C=C2\SC(=S)N(NS(=O)(=O)c3ccc(C)cc3)C2=O)cc1	-9%	-2%	-0.3%	nt
COc1ccc(OCc2cc(C(=O)N3CCCC(CO)C3)no2)c2ccccc12 (centres undefined)	0%	-58%	-3.0%	nt
Cc1cccc(NC(=O)c2ccc3c(=O)n(CC4CCCO4)c(=S)[nH]c3c2)c1 (centres undefined)	0%	3%	2.3%	nt
COc1ccccc1C(=O)NC(C(=O)NCCc1nc2ccccc2[nH]1)=C(C)C	-3%	-4%	-0.5%	nt
c1ccc(-c2csc(NC3CCCCC3)n2)cc1	-19%	-51%	-6.7%	nt
COc1ccc(-c2nc(CSCC(=O)N3CCC(C(N)=O)CC3)c(C)o2)cc1OC	5%	-15%	4.6%	5
O=C(Cc1cccs1)Nc1ccc([N+](=O)[O-])cc1	33%	-3%	-3.4%	nt
O=C(NNC(=S)Nc1ccccc1Cl)c1ccncc1	-6%	-25%	?	-3
CCN(C(=O)CSc1ccc2ccccc2n1)C1CCCCC1	3%	nt	-0.3%	nt
Cc1nn(-c2ccccc2)c(C)c1/C=C/C(=O)OCC(=O)N(C)C1CCS(=O)(=O)C1 (centres undefined)	16%	-3%	2.3%	12
Cc1ncc(CCl)c2c1OC(C)(C)OC2	-14%	-3%	-1.2%	-1
Cc1cccc(CS(=O)(=O)c2ncc(Cl)c(C(=O)NCc3ccc4c(c3)OCO4)n2)c1	5%	?	1.5%	nt
O=C(COC(=O)c1ccccn1)Nc1nc(-c2cccc([N+](=O)[O-])c2)cs1	11%	-13%	5.3%	-4
O=C1C2C3c4ccccc4C(c4ccccc43)C2C(=O)N1/N=C/c1cccc(O)c1 (centres undefined)	1%	-1%	?	-4
COC(=O)c1c(NC(=O)Cn2cc([N+](=O)[O-])cn2)sc2c1CCC2	-8%	-3%	-0.1%	-10
CCCNc1cc(=S)nc(N)[nH]1	25%	-2%	2.3%	10
N#CC1CCN(c2ncccc2[N+](=O)[O-])CC1	-6%	0%	1.1%	-6
O=C(O)c1cnn2c(-c3ccccc3)ccnc12	19%	0%	-3.8%	nt
CCOC(=O)c1c(NC(=O)/C=C/C(=O)O)sc(C)c1-c1ccc(F)cc1	16%	10%	2.9%	9
COc1cccc(NC(=O)N2CCCC2C(=O)NCc2ccc(Cl)cc2)c1 (centres undefined)	13%	-3%	6.1%	nt
CCOC(=O)C(=Nc1ccc(Cl)cc1)NO	-4%	2%	4.4%	6
O=S(=O)(N/N=C1/CCCc2ccccc21)c1ccc(Br)cc1	4%	-2%	5.0%	-5

Next part, overlapping the part above by six compounds.
SMILES	Rango release inh	miR-21 FLuc	Rango complex inh	GLA inh pH 4.5
N#CC1CCN(c2ncccc2[N+](=O)[O-])CC1	-6%	0%	1.1%	-6
O=C(O)c1cnn2c(-c3ccccc3)ccnc12	19%	0%	-3.8%	nt
CCOC(=O)c1c(NC(=O)/C=C/C(=O)O)sc(C)c1-c1ccc(F)cc1	16%	10%	2.9%	9
COc1cccc(NC(=O)N2CCCC2C(=O)NCc2ccc(Cl)cc2)c1 (centres undefined)	13%	-3%	6.1%	nt
CCOC(=O)C(=Nc1ccc(Cl)cc1)NO	-4%	2%	4.4%	6
O=S(=O)(N/N=C1/CCCc2ccccc21)c1ccc(Br)cc1	4%	-2%	5.0%	-5
COc1ccc(OC)c(/C=N/Nc2nc(C)cc(=O)[nH]2)c1	14%	0%	0.0%	nt
N#Cc1c(-c2ccccc2)[nH]c(=S)[nH]c1=O	-23%	-2%	-4.6%	2
Cc1ccc(C)c(SCc2noc(C(=O)NC(C)C)c2C(=O)O)c1	-8%	6%	-0.6%	9
CC(C)Oc1ccc(N2C(=O)c3ccccc3C2=O)cc1	-13%	-42%	-0.2%	1
Cc1ccc(S(=O)(=O)N2CCC(C(=O)NCC3CC3)CC2)cc1	-5%	2%	11%	nt
Cc1nc2ccccc2n1CCC(=O)Nc1cccc(F)c1	14%	-14%	-2.0%	2
O=C(NC(NCc1cccnc1)C(Cl)(Cl)Cl)c1cccc2ccccc12 (centres undefined)	0%	18%	-2.7%	-3
C#CCOCCOCCOCCNc1nc(N2CCN(C(=O)CCCCCCCCCCNC(=O)Cn3cc(CCCCCN)nn3)CC2)nc(N2CCN(C(=O)CCCCCCCCCCNC(=O)[C@H](CO)n3cc(CCCSC)nn3)CC2)n1	23%	nt	6.8%	nt
Cc1cccc(C(=O)Nc2ccc3c(c2)C(=O)N(CC(C)C)C3=O)c1	-11%	-12%	-2.4%	8
Cc1occc1-c1nnc(SCC(=O)NC2CC2)n1C(C)C	-5%	-2%	3.4%	nt
O=C(CSc1nncs1)Nc1ccc(S(=O)(=O)N2CCCC2)cc1	-3%	3%	-3.4%	1
COc1cc(C2NC(=O)NC(C)=C2C(=O)OCC2CCCCC2)ccc1O (centres undefined)	9%	-16%	-2.3%	nt
CCOC(=O)Cc1nnc(NC(=O)COc2ccc(OC)cc2)s1	-7%	-4%	?	2
O=C(CSc1nnc(-c2ccco2)n1Cc1ccco1)Nc1ccccc1	-15%	-3%	-0.2%	-1
O=C(NCc1ccco1)c1cc2c(s1)CCCCC2	14%	-57%	-3.8%	-18
CCOc1ccc(S(=O)(=O)Nc2cccc(C)c2)c2cccnc12	17%	-1%&3%	-3.2%	8
CCCCCN(C(=O)CCC(=O)OCc1cccc(C(F)(F)F)c1)c1c(N)n(CCCC)c(=O)[nH]c1=O	0%	-2%	5.9%	nt
C=C(C)CSCc1nc2ccccc2[nH]1	18%	-37%	1.1%	7
COc1ccccc1-n1cnnc1SCC(=O)Nc1cc(C(C)(C)C)nn1-c1ccccc1	21%	15%	0.0%	-5
O=C(Nc1nccs1)c1cccc(NC(=O)c2ccco2)c1	1%	1%	2.1%	0
CSCCC(NC(=O)c1cc(S(=O)(=O)N2CCOCC2)ccc1F)c1nc2ccccc2[nH]1 (centres undefined)	-2%	nt	1.3%	nt
O=C(CN1C(=O)NC2(CCCCC2)C1=O)Nc1ccc(Cl)c(S(=O)(=O)N2CCOCC2)c1	-2%	nt	-2.9%	nt
CCSc1nnc(NC(=O)CSc2nnc(-c3c[nH]c4ccccc34)n2C)s1	3%	1%	-1.1%	3
COCCNC(=S)NN=C1CCCCC1	-17%	3%	?	4
C/C(=N\OCc1ccccc1)c1c(O)cc(C(C)C)n(-c2ccccc2)c1=O	-1%	-13%	-5.0%	-7
Cc1c2c(nc3nnnn13)CCCC2	-12%	-2%	-1.7%	2
Cc1cc(C(=O)NNC(=O)c2cccc(C(F)(F)F)c2)no1	0%	-2%	-0.3%	-2
O=C1Nc2ccc(S(=O)(=O)N3CCCC3)c3cccc1c23	-18%	-11%	?	4
COc1ccc(-c2cc(C(=O)N(C)CCc3ccc(OC)c(OC)c3)c3ccccc3n2)cc1	14%	4%	-0.6%	nt
COc1ccc(/C=C2/SC(=S)N(CCCC(=O)Nc3ccc(O)cc3)C2=O)cc1OC	-19%	-2%	7.1%	nt
CCC(CC)C(=O)Nc1cccc(C(=O)Nc2nnc(C)s2)c1	3%	-1%	2.4%	6
COc1ccc(NC(=O)CN(C)C(=O)C2(c3ccccc3)CCCC2)cc1	7%	nt	6.8%	nt
O=S(=O)(c1cccc2nonc12)N1CCCCC1	18%	-5%	0.2%	nt
C[C@H](CO)N1C[C@H](C)[C@H](CN(C)Cc2ccncc2)Oc2ccc(NC(=O)Nc3ccc(C(F)(F)F)cc3)cc2CC1=O	0%	nt	0.4%	nt
COc1ccc(NC(=O)c2c(C)cc(=O)oc2C)c(OC)c1	5%	-8%	-0.1%	-11
CCn1c(SCC(=O)N(C)c2c(N)n(Cc3ccccc3)c(=O)[nH]c2=O)nc2ccccc21	-15%	-8%	-2.1%	1
O=[N+]([O-])c1cc([N+](=O)[O-])c(Oc2cccc3ccccc23)cc1NN1CCCCC1	-8%	nt	1.7%	nt
Cc1cc(C)cc(NC(=O)c2oc3ccccc3c2COc2ccccc2)c1	-19%	0%	-4.5%	-2
COc1ccc(C2=C(C=O)Cc3ccccc3O2)cc1	0%	nt	3.1%	nt
CCC(=O)Nc1cccc(C2=NN(c3ccccc3)C(c3ccc(OC)cc3)C2)c1 (centres undefined)	?	3%	?	nt
